# Screening data (PubChem BioAssay)
# ClpP mod: qHTS Assay for Activators of ClpP. ATP-dependent Clp protease proteolytic subunit (Bacillus subtilis (strain 168)), P80244. purified B. subtilis ClpP, FRET peptide cleavage, 20 min. Potency, µM (top dose mostly 57.5 µM), without a hit: at the highest dose activity change, negative = active. hit rate 1.9% among 340,000; active = well fitted falling curve with a large enough effect; inconclusive = small, poorly fitted or top-dose-only effect; inactive = no such curve, though single readings can be large or run the other way; further: potency means the concentration at half of the fitted maximal effect; the source files actives as falling curves though it sought activators and does not explain the sign; nearly all actives have a fitted effect of over 65% in size; many hits overshoot -100%
# Target sequence (P80244 whole entry, looked up): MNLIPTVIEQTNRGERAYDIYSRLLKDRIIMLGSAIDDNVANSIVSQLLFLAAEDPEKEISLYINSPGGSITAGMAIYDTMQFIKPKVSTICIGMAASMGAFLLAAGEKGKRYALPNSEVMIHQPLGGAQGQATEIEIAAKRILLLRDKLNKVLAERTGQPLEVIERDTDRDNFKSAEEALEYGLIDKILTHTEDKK
#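 Buffer: 100 mM Tris/HCl pH8, 100 mM KCl, 0.05% low protease BSA, 2.5% glycerol, 0.01% Tween-20. ClpP 10 microg/mL final; 20 min RT; delta FRET normalized to ADEP and DMSO controls.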
# PINK1 expr mod: modulators of PINK1 expression | PINK1 immunofluorescence, high-content cytometry, 24 h | Potency, µM (top dose mostly 76.6 µM), without a hit: at the top dose activation (PINK1 increase), actives largely listed as activators | hit rate 0.2% among 410,000; active = well fitted activation curve with a large enough effect; inconclusive = small, poorly fitted or top-dose-only effect; inactive = flat fitted curve, though single readings scatter; cell line not stated here;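 further: potency means the concentration at half of the fitted maximal effect; % of control where 0% means no effect; nearly all actives have a fitted effect of over 65% in size; a mitochondrial uncoupler was the plate control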
#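 Compound titrations (5 concentrations, 24 h) on a stable cell line; DMSO and CCCP controls. Endpoint: fixed-cell PINK1 immunofluorescence with mitochondrial, cell and nuclear markers, scanned by microplate cytometer.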
# gsp ag: agonists of gsp mutant (McCune-Albright syndrome). gsp mutant cells, cAMP HTRF, 30 min; control for the full effect not named in the record. Potency, µM (titrated, usually from 76.9 µM), inactives show at the highest dose activation (cAMP increase), hits mostly activators. hit rate 0.13% among 340,000. AID 624287; active = well fitted activation curve with a large enough effect; inconclusive = small, poorly fitted or top-dose-only effect, or another doubt; inactive = no such curve, though single readings can be large or run the other way; cell line not stated here;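 further: phosphodiesterase inhibitor Ro 20-1724 added with compounds to block cAMP breakdown; potency means the concentration at half of the fitted maximal effect; nearly all actives have a fitted effect of over 60% in size; about a fifth of the inactives were tested at one dose only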
#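 Cells in DMEM/10% FBS with G418 were pretreated with compounds in DMSO plus […] (300 uM stock) for 30 min at 37C. cAMP was measured by HTRF (cAMP-d2 plus anti-cAMP antibody-K) after 30 min at room temperature.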
# Menin MLL FP FL: inhibitors of human menin-MLL interaction, wild-type MLL peptide. Fluorescence polarization, fluorescein-MLL peptide displacement from menin. FP activity change, % at 61.4 µM. 290,000 tested, under 10 active; inconclusive = falling polarisation curve, or a change in total fluorescence; inactive = total fluorescence flat and polarisation flat or rising; no compound was filed as active; the % refers to the polarisation; negative = inhibition;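 further: % of control where 0% means no effect; inhibitors lower the polarisation; unlabelled MLL peptide was the positive control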
# D2 agonist: activates the human D2 dopamine receptor; P14416; DiscoveRx PathHunter D2 beta-arrestin, luminescence, 90 min; 100% = 57 uM dopamine signal; activation, % (concentration not given with the values); hit rate 0.084% among 360,000; AID 624465; in the data active = activation above about 40%; inconclusive = about 15% to 40%; inactive = below about 15%; further: compound concentration not given in the record; the text of the record calls up to 30% inactive
# Target sequence (P14416 whole entry, looked up): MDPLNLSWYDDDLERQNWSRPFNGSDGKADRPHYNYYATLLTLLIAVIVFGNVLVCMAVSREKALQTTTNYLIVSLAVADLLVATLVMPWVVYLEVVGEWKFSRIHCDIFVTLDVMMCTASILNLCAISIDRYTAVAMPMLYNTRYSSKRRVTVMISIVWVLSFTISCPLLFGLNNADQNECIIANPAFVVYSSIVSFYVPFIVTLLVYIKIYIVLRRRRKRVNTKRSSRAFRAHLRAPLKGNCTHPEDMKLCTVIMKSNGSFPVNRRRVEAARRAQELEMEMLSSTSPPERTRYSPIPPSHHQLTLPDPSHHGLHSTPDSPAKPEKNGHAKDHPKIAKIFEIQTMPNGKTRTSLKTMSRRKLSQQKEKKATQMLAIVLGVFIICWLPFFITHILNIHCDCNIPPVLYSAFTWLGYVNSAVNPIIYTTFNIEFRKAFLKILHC
#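 DiscoveRx PathHunter D2 beta-arrestin cells (2,100/well) attached overnight, then compound-stimulated 90 min at 37 C in HBSS/10 mM HEPES/0.1% Tween-20 buffer; beta-galactosidase complementation read by luminescence after 1 h at ambient temperature. Dopamine 57 uM final (EC100) as control.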
# gsp antag: antagonizes gsp, the McCune-Albright syndrome mutation; gsp-mutant cells, cAMP HTRF, 30 min; control for the full effect not named in the record; Potency, µM (highest dose often 76.9 µM), without a hit: at the highest dose activity change, negative = inhibition, usual class: inhibitors; hit rate 0.4% among 340,000; AID 624288; active = falling curve of any shape with a large fitted effect; inconclusive = falling curve, mostly with a smaller effect; inactive = flat or rising curve; cell line not stated here;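 further: intracellular cAMP measured with PDE inhibitor Ro 20-1724 present during compound exposure; potency means the concentration at half of the fitted maximal effect; on the % scale 0 is the no-effect control and ±100 the full control effect; nearly all actives have a fitted effect of over 65% in size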
#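 Cells in G418 medium, seeded 16-24 h, 37C; buffer exchange to DPBS + 1 mM CaCl2, 0.5 mM MgCl2, 0.05% BSA; cpds in DMSO + […] (300 uM stock), 30 min 37C; HTRF cAMP detection.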
# Sfp PPTase inh: Sfp phosphopantetheinyl transferase inhibition | Biochemical Sfp PPTase activity, qHTS | Q9F4F7 | AID 1490 | hit rate 3.5% among 310,000 | Potency, µM, for the others: max response, negative = inhibition, hits mostly inhibitors; active means well fitted inhibition curve with a large enough effect; inconclusive means small, poorly fitted or top-dose-only effect, or another doubt; inactive means no such curve, though single readings can be large or run the other way;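 further: the enzyme is Sfp with the accession as filed and its product quenches rhodamine fluorescence; potency means the concentration at half of the fitted maximal effect; 0% = enzyme reaction without inhibitor and -100% = no enzyme wells; top concentration of the series not given in the record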
#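 Fluorescence-quenching assay: 15 nM Sfp-PPTase preincubated 15 min at room temperature with compound, then 5 uM rhodamine-CoA and 12.5 uM BHQ-2-labelled YbbR peptide added. Fluorescence (ex 525/em 598 nm) read at start and after 30 min; difference gives rate.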
# Starred values were filed as active, the others as inactive; ? = inconclusive; . = no result given; & = joins results of further samples; [ ] = another dose, or the depositor's remark.
SMILES,ClpP mod,PINK1 expr mod,gsp ag,Menin MLL FP FL,D2 agonist,gsp antag,Sfp PPTase inh
O=[N+]([O-])c1ccccc1CNC1CCCc2ccccc21 (stereo unspecified),-2.5%,-0.2%,-11%,-1.3,-5.3,7%,-20%
COc1ccccc1C(=O)OCCN1CCOCC1,-1.6%,-2.3%[38.3 µM],0%,4.9,1.6,-1%,10%
Nc1ncnc2c1ncn2[C@@H]1O[C@H](COP(=O)(O)OP(=O)(O)OP(=O)(O)O)[C@@H](O)[C@H]1O,-1.7%,1.3%,.,1.1,-3.1,0%,5%
O=C(O)CC(c1ccccc1F)N1Cc2ccccc2C1=O (stereo unspecified),-0.2%,0.9%,?,0.9,3.5,9%,18%
COc1ccc(C(CNC(=O)C(CCSC)NC(=O)c2ccccc2Cl)N2CCCC2)cc1 (stereo unspecified),-3.1%,1.2%,-33%[inhibitor],.,-3.7,1%,.
O=C(Nc1c2c(nn1-c1ccc(F)cc1)CS(=O)(=O)C2)c1ccc(S(=O)(=O)N2CCOCC2)cc1,-2.5%,-1.6%,-2%[15.4 µM],-2.7,-7.8,-1%,13%
CC(=O)Nc1ccc(C(=O)c2ccccc2)cc1,0.0%,1.3%,24%,0.9,-1.6,?,14%
O=C(NNC1=NCCCCC1)c1ccccc1,1.1%,?,-65%[inhibitor],1.1,-3.1,11%,8%
COc1ccc(OCC(=O)NNC(=O)c2cc3ccccc3o2)cc1,-3.1%,1.8%,-18%,4.3,-6.2,2%,18%
O=C1Nc2cc(C(=O)N3CCOCC3)ccc2SC1N1CCOCC1 (stereo unspecified),1.6%,3.8%,0%,7.9,0.1,14%,4%
COCCn1c(=O)c(-c2cccc(C#N)c2)nc2cnc(N3CCOCC3)nc21,.,-0.3%,.,?,.,.,7%
CCN1C(=O)N[C@@H](CCc2ccccc2)C(C(C)=O)=C1C,-1.5%,2.0%,-1%,-3.1[11.7 µM],-7.6,6%,5%
Fc1cccc(CN2CCN(c3nc4nonc4nc3NC3CC3)CC2)c1,-0.2%,-0.7%,1%,?,3.8,-13%,8%
N#CC1(NC(=O)COC(=O)CN2C(=O)c3ccccc3C2=O)CCCCC1,.,2.0%,-1%[15.4 µM],.,5.3,-9%,.
COc1ccc(-n2nc3c(c2NC(=O)C(C)Oc2ccccc2)CS(=O)(=O)C3)cc1 (stereo unspecified),1.4%,-0.6%,-19%,-2.3,-2.9,-4%,19%
COc1cccc(-c2cc(NC=O)c3ncc(-c4cc(OC)c(OC)c(OC)c4)n3c2)c1,-20%,4.4%,.,.,5.6,.,.
CCN1C(=O)[C@H]2[C@@H](c3ccc(C)cc3)N3C(=O)N(c4ccccc4)C(=O)[C@@]3(Cc3ccc(Cl)cc3)[C@H]2C1=O,0.0%,2.2%,.,-6.0,-0.7,-7%,1%
Cn1c(=S)n(/N=C/c2ccc3c(c2)OCO3)c2ccccc21,-2.4%,-1.1%,-4%,4.8,-0.7,-10%,-21%
O=C(O)c1cccc(S(=O)(=O)Nc2ccc3[nH]c(=O)[nH]c3c2)c1,.,-1.1%,-6%[15.4 µM],-2.2,5.5,-1%,6%
CS(=O)(=O)N(CC(=O)N/N=C/c1ccco1)c1ccccc1Br,0.2%,-0.4%,1%,2.2,-2.2,15%,10%
CCc1nn(C(C)C(=O)NCCN2CCCCCC2)c(=O)c2cc3occc3n12 (stereo unspecified),-4.0%,-0.1%,?,-0.5,-2.2,13%,8%
COC(=O)c1ccc(CSC2=NC[C@@H]3[C@@H]4C(=O)N(C)C(=O)[C@@H]4[C@](Cc4ccccc4)(C(=O)OC)N23)cc1,0.7%,-0.4%,.,.,-0.3,2%,.
CCCc1cc(C(=O)NCc2ccccc2)no1,-0.4%,3.8%,-1%,1.4,-1.3,3%,-14%
Cc1ccc(N2C(=O)CC(N(CCc3ccccc3)C(=S)Nc3ccc(N(C)C)cc3)C2=O)cc1 (stereo unspecified),-0.5%,2.6%,14%,3.3,-2.3,5%,2%
COC(=O)CC1c2ccccc2S(=O)(=O)N1Cc1ccccc1 (stereo unspecified),0.1%,-0.3%,-7%,7.1&0.3,-6.8,5%,-8%&6%
Cc1cc(O)ccc1NC(=S)NC(=O)c1cncc(Br)c1,-1.3%,0.5%,0%,-0.1,-9.3,-7%,56µM*
COCCN(Cc1cc2cc(C)ccc2nc1Cl)C(=O)Nc1ccccc1C,-0.4%,.,9%,-0.3,-0.7,39%[activator],23%
Cc1nc(Nc2ccccc2C(F)(F)F)sc1C(=O)N(C)C,.,-0.7%,-33%,2.9,0.9,-10%,-3%
O=C(Cc1ccccc1)N/N=C/c1ccc(-c2ccc([N+](=O)[O-])cc2)o1,-2.1%,7.9µM*,15%,16,1.7,6%,1%
Cc1cccc(C)c1OC(=O)C(c1ccccc1)c1ccccc1,-2.7%,?,1%,3.9,-2.8,8%,-20%
CCOC(=O)C1=CN(CC)S(=O)(=O)NC1c1ccc2ccccc2c1 (stereo unspecified),-1.5%,0.7%,.,.,-0.1,-4%,.
CCOc1ccccc1NC(=O)Cn1c(=O)n(-c2ccccc2)c(=O)c2oc3ccccc3c21,-10%,?,-3%,4.5,0.3,-8%,-5%
CC1(C(=O)NCc2ccc(Cl)c(Cl)c2)Oc2cccnc2NC1=O (stereo unspecified),.,0.9%,14%[15.4 µM],1.8,-5.8,-40%,13%
O=C(C(=O)N1CCN(c2ccccc2)CC1)c1c[nH]c2ccccc12,-0.1%,-1.3%,-19%[15.4 µM],-0.3,-3.4,4%,-3%
O=C(CSc1nnc(COc2cccc3cccnc23)o1)N1CCc2ccccc21,-0.8%,-2.0%[38.3 µM],-7%,12,-0.3,8%,9%
COc1ccc(OC)c(N(CC(=O)N2CCCC2)S(=O)(=O)c2ccc(C)cc2)c1,.,1.1%,4%[15.4 µM],6.1,-0.9,4%,8%
Cc1cc(C)c(OCCCCNCc2ccccc2)c(Cl)c1,-1.8%,?,?,2.1,-1.7,6%,-15%
COc1cc(NC2CCCCC2O)c2nc(-c3ccc(Cl)cc3)ccc2c1 (stereo unspecified),-0.2%,0.1%,?,-8.5,12,8%,?
O=C(CCCN1C(=O)c2cccnc2C1=O)N1CC(=O)N(CCc2ccccc2)C(=O)C1,-0.4%,0.3%,15%,-0.4,-2.5,9%,13%
CC(OC(=O)c1cc(=O)c2cc(Cl)ccc2o1)C(=O)N1CCCC1 (stereo unspecified),.,-2.2%,2%[15.4 µM],.,-2.8,0%,.
CN1C[C@@H]2C(c3ccc(Cl)nc3)C3(c4cccnc4)CC2(C3)[C@H]1c1ccccc1 (stereo partly specified),0.0%,0.5%,.,5.7&6.3,-0.8,3%,26%&5%
CCc1ccc(NS(=O)(=O)c2ccc3[nH]c(=O)[nH]c3c2)cc1,.,0.7%,-10%,2.3,3.1,9%,11%
C=CCn1c(-c2ccc(N)cc2)nc2ccccc21,4.5%,3.8%,-49%,1.0,-8.9,-9%,9%
Cc1c(Cl)cccc1NC(=O)Cn1cccc1,-2.9%,8.2%[38.3 µM],?,2.9,0.7,16%,1%
Cc1cc(N2CCOCC2)nc2cc(O)ccc12,4.5%,1.1%,?,-4.3,-3.2,6%,2%
CC(C)CCNCC(O)CON=C1c2ccccc2-c2ccccc21 (stereo unspecified),2.3%,-1.1%,?,-0.6,-5.5,2%,35µM*
Cc1ccsc1/C=N/NC(=O)CNC(=O)c1cccc([N+](=O)[O-])c1C,-0.6%,-0.8%,7%,1.1,0.0,-1%,15%
CC(C)CNC(=O)CSc1nc2nn(-c3ccccc3)c(=O)c-2c2n1CCCCC2,.,1.9%,0%[15.4 µM],4.9,0.3,?,-8%
O=C(NCC1CCCO1)c1cccc(C(=O)NCC2CCCO2)c1 (stereo unspecified),-1.8%,0.5%,-26%,-8.3,-5.3,1%,7%
O=C(O)c1ccccc1C(=O)c1ccc2c(c1)CCC2,.,3.2%,3%,-1.9,-3.3,-5%,7%
COc1cc(C(CC(=O)Nc2ccc(Cl)cn2)N2Cc3ccccc3C2=O)cc(OC)c1OC (stereo unspecified),1.1%,3.8%,-23%,6.2,1.7,-10%,9%
C=CCC1NS(=O)(=O)OC(COC)C1C (stereo unspecified),-2.0%,-0.4%,-2%,2.7,-2.3,10%,9%
Cc1cc2c(c(SCC(=O)NCCc3ccccc3)n1)C(=O)OC2,-5.8%,-0.8%,15%,3.1,-0.4,-3%,-1%
CCN(CC(=O)Nc1c(F)cccc1F)C(=O)c1c(-c2ccccc2Cl)noc1C,0.2%,0.5%,20%,.,-3.2,.,.
CC(=O)OCC(=O)NCC(=O)c1c[nH]c2ccccc12,-6.6%,-0.8%,2%,1.4,1.2,5%,8%
Cc1ccc(NC(=O)CN(C)C(=O)CSc2nncn2C)cc1,-2.3%,-1.7%,-33%[inhibitor],-1.7,-1.4,-4%,0%
C=CC(O)(C#CCN(CC)CC)c1ccccc1 (stereo unspecified),2.7%,-1.9%,13%,4.9,-4.1,-2%,19%
CC(=O)NC(Cc1ccc(F)c(F)c1)C(=O)NC1CCN(c2nnnn2-c2ccccc2)CC1 (stereo unspecified),2.3%,1.6%,-19%,-5.1,3.4,1%,20%
Oc1ccc(C2C(c3ccccc3)=NN=C(c3ccc(Cl)cc3)N2O)c(O)c1 (stereo unspecified),1.2%,27%,0%,4.6,6.6,-2%,-22%
Cc1c(N(C(=O)Cc2cccs2)C2(C(=O)NC3CCCC3)CCCCC2)c(=O)n(-c2ccccc2)n1C,.,2.6%,-21%[15.4 µM],-4.2,-0.8,8%,17%
